# High-throughput results deposited in PubChem BioAssay by Southern Research Institute.
# total CFTR: total CFTR protein upregulators, primary screen, cell-based, HeLa F508del-CFTR, immunofluorescence, viability (AID 1224863) | Cystic fibrosis transmembrane conductance regulator (Homo sapiens) | HeLa F508del-CFTR, immunofluorescence total CFTR, 24 h; by the record results were divided by relative cell number; some inactives read as strong as hits | calls, or highest fold increase where a dose series was run | 10,000 compounds, 0.1% hits; in the data nearly all actives have a first-pass fold increase above 1.5; a few of its hits are not listed in these tables;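 further: total CFTR protein by anti-CFTR immunofluorescence in fixed cells; first pass at 25 µM or 10 µg/mL by library and series up to twice that; 1 = untreated cells; first-pass hits also needed half or more of the cells alive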
# total CFTR fold 25 µM: further read-out of total CFTR, marked with its call; fold increase; measured here: primary screen single dose 25 uM; library dosed in µM
# total CFTR fold 10 ug/mL: second read-out of total CFTR, no call of its own (marks repeat the call); fold increase; measured here: primary screen 10 ug/mL
# total CFTR viability 25 µM: further read-out of total CFTR, marked with its call; viability, %; measured here: primary viability 25 uM; library dosed in µM;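 0% = killed and 100% = untreated cells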
# total CFTR viability 10 ug/mL: second read-out of total CFTR, no call of its own (marks repeat the call); viability, %; measured here: primary viability 10 ug/mL;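 0% = killed and 100% = untreated cells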
# * marks the source's active call; other numbers are inactive results; i = inactive; x = not tested or not shown; & = joins results of further samples. These rows are one share of the data, so the mix of outcomes need not match the whole.
SMILES,total CFTR,total CFTR fold 10 ug/mL,total CFTR viability 10 ug/mL,others
CC1CC(C)(C)CC2(C1)NC(=O)N(CN1CCN(c3ncccn3)CC1)C2=O (stereo unspecified),i,0.97,87.0,
CC(C)n1cnn(CN2CCC(NC(=O)C3CC3)CC2)c1=S,i,1.06,100.0,
Cc1ccc(C)c(CN2C(=O)C(=O)N(C34CC5CC(CC(C5)C3)C4)C2=O)c1,i,1.11,79.0,
COc1cc(C)c(COn2nnc3ccc(Cl)cc32)cc1OC,i,1.06,98.0,
CC(C)(C)c1cc(-c2ccccc2)c2cc(Cl)ccc2n1,i,1.12,104.0,
O=S(=O)(c1ccc2c(c1)OCCO2)N1CCCc2cc(F)cc(F)c21,i,0.77,85.0,
CC(Sc1n[nH]c(=O)n1C1CC1)C(N)=O (stereo unspecified),i,0.91,100.0,
CS(=O)(=O)c1cc(C(=O)OC2CCOC2=O)ccc1Cl (stereo unspecified),i,1.03,88.0,
O=C(NOCc1ccccc1)c1ccccc1I,i,1,98.0,
Cc1ccc(C(Nc2ccccc2[N+](=O)[O-])C2CC2)cc1 (stereo unspecified),i,0.85,75.0,
CCCc1nc2c(C)cc(-c3nc4ccccc4n3C)cc2n1Cc1ccc(-c2ccccc2C(=O)O)cc1,i,x,x,total CFTR fold 25 µM=0.99&0.88&0.96;total CFTR viability 25 µM=78.0&111.0&80.0
CC(C)(C)c1nc(=S)[nH][nH]1,i,1.02,93.0,
O=P(O)(O)C(O)(Cc1cccnc1)P(=O)(O)O,i,x,x,total CFTR fold 25 µM=1.2&1.15&1.03;total CFTR viability 25 µM=95.0&87.0&80.0
C[C@H]1O[C@@H](n2cc(F)c(=O)[nH]c2=O)[C@H](O)[C@@H]1O,i,x,x,total CFTR fold 25 µM=1.1;total CFTR viability 25 µM=98.0
CN(Cc1ccc2c(c1)OCCO2)CN1C(=O)NC(c2ccccc2)(c2ccccc2)C1=O,i,0.97,96.0,
CCN(CC)c1ccc(NC(=O)C2CSC3(C)CCC(=O)N23)cc1 (stereo unspecified),i,1.09,106.0,
Cc1ccc(-c2noc(CSc3nnc4nc(C)cc(C)n34)n2)cc1,i,0.92,81.0,
O=C1c2ccccc2NC2(CCN(CC3CCCCC3)CC2)N1c1ccc2c(c1)OCO2,i,1.05,91.0,
CCn1c(-c2ccncc2)nn(CN2c3ccc([N+](=O)[O-])cc3CC2C)c1=S (stereo unspecified),i,0.98,96.0,
O=S(=O)(c1cccc2nsnc12)N1CCc2sccc2C1c1ccccc1 (stereo unspecified),i,1.05,92.0,
CNC[C@@H](O)c1ccc(O)c(O)c1,i,x,x,total CFTR fold 25 µM=1.07;total CFTR viability 25 µM=99.0
CCOC(=O)c1[nH]c(C)c(C(=O)NC(C)C23CC4CC(CC(C4)C2)C3)c1C (stereo unspecified),i,1.04,75.0,
CCCS(=O)c1ccc2nc(NC(=O)OC)[nH]c2c1 (stereo unspecified),i,x,x,total CFTR fold 25 µM=0.93;total CFTR viability 25 µM=91.0
CC(C)N1C(=O)C(=O)N(Cc2ccc(Cl)s2)C1=O,i,1.08,104.0,
CNC(=O)NC(=O)CCSc1nccn1C,i,1,91.0,
CCCCSc1nnc(-c2c[nH]c3ccccc23)o1,i,0.94,85.0,
N#CC(c1ccc(Cl)cc1)c1c(Cl)cc(-n2ncc(=O)[nH]c2=O)cc1Cl (stereo unspecified),i,x,x,total CFTR fold 25 µM=0.79;total CFTR viability 25 µM=77.0
COc1ccnc(N2CCN(S(=O)(=O)c3ccc(C)cc3C)CC2)n1,i,0.98,97.0,
CCOCCCNC(=O)CN1C(=O)NC(C(C)C)C1=O (stereo unspecified),i,1.07,99.0,
O=S(=O)(N1CCCCCC1)N1CCN(Cc2csc3ccccc23)CC1,i,0.82,87.0,
N#Cc1ccc(CSc2nnc(C3CCCCC3)o2)cc1,i,0.91,74.0,
CC1CCN(CCCNC(=O)C(NC(=O)C23CC4CC(CC(C4)C2)C3)C(C)C)CC1 (stereo unspecified),i,1.17,105.0,
CCN(CCCc1ccccc1)CCCc1ccccc1,i,x,x,total CFTR fold 25 µM=1.05;total CFTR viability 25 µM=83.0
COCc1c(C(=O)OCc2cccc(F)c2F)oc2ccccc12,i,0.99,89.0,
O=C1CCCN1c1ccc(S(=O)(=O)NC2CCSc3ccc(Cl)cc32)cc1 (stereo unspecified),i,1,97.0,
COc1cc(Cn2nnn(-c3cccs3)c2=O)c(OC)cc1Br,i,0.92,99.0,
CC(C)C(NC(=O)C12CC3CC(CC(C3)C1)C2)C(=O)N1CCN(S(=O)(=O)N(C)C)CC1 (stereo unspecified),i,0.97,91.0,
Brc1ccc(SCc2nc(NCc3cccnc3)c3c4c(sc3n2)CCCC4)cc1,i,0.93,78.0,
CC(C)(CNS(=O)(=O)c1cccc(Cl)c1Cl)N1CCOCC1,i,0.91,87.0,
N#CC(N)c1ccc(Cl)cc1Cl (stereo unspecified),i,1.1,96.0,

# A portion from further up:
SMILES,total CFTR,total CFTR fold 10 ug/mL,total CFTR viability 10 ug/mL,others
Brc1ccc(SCc2nc(NCc3cccnc3)c3c4c(sc3n2)CCCC4)cc1,i,0.93,78.0,
CC(C)(CNS(=O)(=O)c1cccc(Cl)c1Cl)N1CCOCC1,i,0.91,87.0,
N#CC(N)c1ccc(Cl)cc1Cl (stereo unspecified),i,1.1,96.0,

# Quoted at random: 4 records from the list.
SMILES,total CFTR,total CFTR fold 10 ug/mL,total CFTR viability 10 ug/mL,others
CC1CCN(CCCNC(=O)C(NC(=O)C23CC4CC(CC(C4)C2)C3)C(C)C)CC1 (stereo unspecified),i,1.17,105.0,
N#Cc1ccc(CSc2nnc(C3CCCCC3)o2)cc1,i,0.91,74.0,
CCOC(=O)c1[nH]c(C)c(C(=O)NC(C)C23CC4CC(CC(C4)C2)C3)c1C (stereo unspecified),i,1.04,75.0,
COc1cc(Cn2nnn(-c3cccs3)c2=O)c(OC)cc1Br,i,0.92,99.0,

# (cont.)
SMILES,total CFTR,total CFTR fold 10 ug/mL,total CFTR viability 10 ug/mL,others
Cc1nc(C2(NS(=O)(=O)c3ccccc3)CCC2)no1,i,0.97,102.0,
CCc1nnc(CSc2nc3ccc(Cl)cc3[nH]2)o1,i,1,73.0,
O=C(O)CN1C(=O)COc2ccc(S(=O)(=O)N3c4ccccc4SCC3c3ccccc3)cc21 (stereo unspecified),i,1.15,96.0,
CC1(C(=O)N(Cc2ccc3c(c2)OCO3)C2CCCC2)CC1(Cl)Cl (stereo unspecified),i,1.03,89.0,
O=S(=O)(Nc1ccc2c(c1)OCCCO2)c1ccc(S(=O)(=O)N2CCCC2)cc1,i,0.92,71.0,
O=C1c2cccc(O)c2C(=O)c2c(O)cccc21,i,x,x,total CFTR fold 25 µM=0.95;total CFTR viability 25 µM=110.0
CCCCNCCOc1ccc(Br)cc1,i,0.8,101.0,
CO[C@]12C[C@@H](COC(=O)c3cncc(Br)c3)CN(C)[C@@H]1Cc1cn(C)c3cccc2c13,i,x,x,total CFTR fold 25 µM=0.94&1.02;total CFTR viability 25 µM=83.0&81.0
CC(C)(C)c1ccc(C2NCC(c3ccc(Cl)cc3Cl)c3c2[nH]c2ccccc32)cc1 (stereo unspecified),i,1.22,90.0,
O=C(/C=C/c1ccc(Br)s1)NC1CC1,i,0.99,82.0,
CCCCN1CCC(N)CC1,i,1.17,89.0,
COc1ccc(OC)c(C2CCCN2CN2C(=O)c3cccc4cccc2c34)c1 (stereo unspecified),i,1.17,89.0,
CCn1c2ccccc2c2cc(CN(C)c3ccc4nnnn4n3)ccc21,i,1.02,92.0,
CCCCCCn1c(SC(C)CC)nc2c1c(=O)[nH]c(=O)n2C (stereo unspecified),i,0.83,84.0,
COc1cc(Cc2cnc(N)nc2N)cc(OC)c1OC,i,x,x,total CFTR fold 25 µM=1.1&1.11;total CFTR viability 25 µM=84.0&93.0
COC(=O)c1cc(OC)c(OC)cc1NCc1cc(=O)oc2cc3c(cc12)CCC3,i,1.09,93.0,
OCCN1C[C@@H](O)[C@@H](O)C(O)C1CO (stereo partly specified),i,x,x,total CFTR fold 25 µM=1.1;total CFTR viability 25 µM=87.0
Cc1noc(C)c1C(=O)OCc1cc(=O)n2ccccc2n1,i,0.97,102.0,
CCCCn1c(N)c(N(C)CCC)c(=O)[nH]c1=O,i,1,103.0,
c1cc2c(cc1Sc1ccc3nnnn3n1)OCCO2,i,1.11,87.0,

# Three compounds out of the list, sorted by heavy-atom count, smallest number first:
SMILES,total CFTR,total CFTR fold 10 ug/mL,total CFTR viability 10 ug/mL,others
CCCCNCCOc1ccc(Br)cc1,i,0.8,101.0,
COc1cc(Cc2cnc(N)nc2N)cc(OC)c1OC,i,x,x,total CFTR fold 25 µM=1.1&1.11;total CFTR viability 25 µM=84.0&93.0
O=C(O)CN1C(=O)COc2ccc(S(=O)(=O)N3c4ccccc4SCC3c3ccccc3)cc21 (stereo unspecified),i,1.15,96.0,

# The listing continues.
SMILES,total CFTR,total CFTR fold 10 ug/mL,total CFTR viability 10 ug/mL,others
CC1CCCCC1N1C(=O)C(=O)N(CN2CCN(C3CCS(=O)(=O)C3)CC2)C1=O (stereo unspecified),i,1.15,87.0,
CC(NCCC(c1ccccc1)c1ccccc1)c1ccccc1 (stereo unspecified),i,x,x,total CFTR fold 25 µM=0.6;total CFTR viability 25 µM=4.0
Cc1csc(/C(C#N)=C\c2c(-c3ccccc3)nc3ccccn23)n1,i,1.03,87.0,
CC(=O)N1CCc2cc(NC(=O)CCc3c(C)noc3C)ccc21,i,1.01,97.0,
Cc1nc(C2(NS(=O)(=O)c3cccc(Cl)c3F)CCCCCC2)no1,i,0.88,80.0,
CC(Cc1ccco1)NC(=O)C1CC=CCC1 (stereo unspecified),i,0.96,94.0,
Nc1cc(C2CCC2)no1,i,1,95.0,
O=S(=O)(Nc1cc(F)cc(F)c1)c1cccc2nsnc12,i,1.02,92.0,
O=S(=O)(c1ccc2c(c1)OCCCO2)N1CCCC1c1cccs1 (stereo unspecified),i,1.01,96.0,
CC(C)c1ccsc1C(=O)O,i,1.04,83.0,
COc1cc(OC)cc(-c2nnc(SCC3CC3(Cl)Cl)o2)c1 (stereo unspecified),i,1.1,94.0,
COc1cc(Br)c(S(=O)(=O)Nc2cc(NS(C)(=O)=O)ccc2Cl)cc1OC,i,0.98,94.0,
COc1ccccc1OCC(O)CO (stereo unspecified),i,x,x,total CFTR fold 25 µM=1.18&0.87&1.21;total CFTR viability 25 µM=95.0&119.0&89.0
O=C(CC1CC2CCC1C2)NCC1(N2CCOCC2)CCCCC1 (stereo unspecified),i,0.86,85.0,
c1ccc(C(Nc2ncnc3ccccc23)C2CC2)cc1 (stereo unspecified),i,0.75,73.0,
Nc1cccc(N2CCNC2=O)c1,i,1.01,109.0,
O=C(NCCC1CCCO1)Nc1ccc(N2CCc3ccccc32)cc1 (stereo unspecified),i,0.9,81.0,
O=C(CSc1nc2sc3c(c2c(=O)[nH]1)CCCC3)Nc1ccon1,i,1.04,92.0,
CC(=O)NCc1ccc(C(=O)C(C)OC(=O)c2ccc(Cl)s2)s1 (stereo unspecified),i,0.97,94.0,
CC1CCN(S(=O)(=O)N2CCN(c3ccccc3)CC2)CC1,i,1.08,105.0,
CCc1cc(OCCCCNC)ccc1Cl,i,1.06,104.0,
CCCCn1c(SCCN2C(=O)c3ccccc3C2=O)n[nH]c1=O,i,1.06,89.0,
COCCNCc1cn[nH]c1-c1ccc(C)cc1,i,0.99,94.0,
CC1(C)SC[C@H](C(=O)O)NC1=O,i,1.03,91.0,
